CHT PAM: human CHT allosteric activation. B-score at 10 µM. hit rate 0.49% among 310,000. CHT-expressing cells, membrane potential dye, choline EC20; hits give high values; LV-AA mutant CHT in HEK293 cells. AID 488977;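 active = initial fluorescence not abnormally high and integrated response B-score, plate-corrected, over 3 SD above library mean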
Target sequence (Q9GZV3 whole entry, looked up): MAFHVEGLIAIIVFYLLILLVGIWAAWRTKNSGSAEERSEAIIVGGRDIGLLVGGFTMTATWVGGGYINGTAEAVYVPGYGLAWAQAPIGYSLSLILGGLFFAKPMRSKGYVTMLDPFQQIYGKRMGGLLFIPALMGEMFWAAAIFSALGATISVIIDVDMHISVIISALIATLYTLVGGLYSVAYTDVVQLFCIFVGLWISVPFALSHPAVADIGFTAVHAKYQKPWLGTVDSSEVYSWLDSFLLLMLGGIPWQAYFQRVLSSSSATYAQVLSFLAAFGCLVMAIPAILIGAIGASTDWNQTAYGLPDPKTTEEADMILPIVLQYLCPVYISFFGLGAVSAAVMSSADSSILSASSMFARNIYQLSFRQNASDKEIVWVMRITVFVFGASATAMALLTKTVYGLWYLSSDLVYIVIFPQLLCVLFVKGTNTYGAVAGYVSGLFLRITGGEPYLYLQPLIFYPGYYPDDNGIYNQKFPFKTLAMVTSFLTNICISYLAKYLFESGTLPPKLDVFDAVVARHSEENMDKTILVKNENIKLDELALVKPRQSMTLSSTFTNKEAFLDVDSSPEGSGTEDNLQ
Calls only; i = inactive. An excerpt, and most or all hits are left out here.

no.	structure	CHT PAM
1	CC(C)(C)C(=O)Nc1ccccc1C(=O)Nc1cccnc1	i
2	O=S(=O)(c1ccccc1)N1CCC2(CC1)CO2	i
3	Cc1cccc(N(C(=O)Nc2ccccc2)C2=NCC(C)S2)c1 (stereo unspecified)	i
4	O=C(CCCN1C(=O)/C(=C/c2cccs2)SC1=S)Nc1ccccn1	i
5	O=C(Cn1nc(-c2ccccc2)c2ccccc2c1=O)Nc1cccc(O)c1	i
6	O=C(COC(=O)C1CCN(S(=O)(=O)c2cccs2)CC1)Nc1ccccc1Br	i
7	COC(CNC(=O)C1CCCN(S(=O)(=O)c2ccc3c(c2)oc(=O)n3C)C1)OC (stereo unspecified)	i
8	CCCOC(=O)c1ccc(NC(=O)c2cccc(S(=O)(=O)N3CCN(C(C)=O)CC3)c2)cc1	i
9	Cc1ccc(S(=O)(=O)Nc2ccc(Cl)cc2)cc1NC(=O)Cn1cnc2c1c(=O)n(C)c(=O)n2C	i
10	O=C(Nc1ccc(S(=O)(=O)Nc2ncccn2)cc1)C1COc2ccccc2O1 (stereo unspecified)	i

Overlap with the part before: 3 compounds, followed by the next part.
no.	structure	CHT PAM
8	CCCOC(=O)c1ccc(NC(=O)c2cccc(S(=O)(=O)N3CCN(C(C)=O)CC3)c2)cc1	i
9	Cc1ccc(S(=O)(=O)Nc2ccc(Cl)cc2)cc1NC(=O)Cn1cnc2c1c(=O)n(C)c(=O)n2C	i
10	O=C(Nc1ccc(S(=O)(=O)Nc2ncccn2)cc1)C1COc2ccccc2O1 (stereo unspecified)	i
11	Cc1ccccc1C(=O)NNC(=O)CCc1ccccc1	i
12	CC(=O)Nc1ccc(NC(=O)CSc2nnc(CC(C)O)n2-c2ccccc2)cc1 (stereo unspecified)	i
13	O=C1CCCC2=C1C(c1cccs1)n1nc(SCc3ccc(C(=O)O)cc3)nc1N2 (stereo unspecified)	i
14	CCOC(=O)c1cnc2c(cnn2C)c1NCCC(O)C(F)(F)F (stereo unspecified)	i
15	Cc1cc(C)c(S(=O)(=O)N(C)c2ccccc2)c(C)c1	i
16	COc1ccc(CNC(=S)NC(C)CCc2ccccc2)cc1 (stereo unspecified)	i
17	Cn1nccc1/C=C(/C#N)S(=O)(=O)c1ccccc1	i
18	CN(Cc1cccc(F)c1)C(=O)c1ccc(S(=O)(=O)C(F)F)cc1	i
19	Cc1cccc(C(C)C)c1NC(=O)C1CCN(S(=O)(=O)c2ccccc2)CC1	i
20	Cc1cccc(CC(=O)c2c[nH]c3ccccc23)c1	i
21	Cc1[nH]c(=O)[nH]c(=O)c1N(C)C	i
22	CCOC(=O)N1CCN(C(=O)CCC(=O)N2CCOc3ccc(C)cc32)CC1	i
23	O=C(NCc1ccccn1)Nc1cccc([N+](=O)[O-])c1	i
24	N/C(=N\OC(=O)c1ccc(Cl)c(Cl)c1)c1cccnc1	i
25	Cc1ccc(NC(=O)CNC(=O)c2ccc(C)s2)nc1	i
26	N#CCCCN1C(=O)C(O)(CC(=O)c2ccc3c(c2)OCCO3)c2ccccc21 (stereo unspecified)	i
27	CCOC(=O)C1(C/C(C)=N/NC(N)=O)CC(C)OC1=O (stereo unspecified)	i
28	CCCS(=O)(=O)N1CCCC(C(=O)N2CCOCC2)C1 (stereo unspecified)	i
29	Cc1cccc(-c2ncc(CN3CCCC(CO)(Cc4ccccc4C)C3)cn2)c1 (stereo unspecified)	i
30	CCOc1ncccc1C(=O)N(CC)CC(=O)NCc1ccc(Cl)cc1	i
31	COC(=O)c1ccc(NC(=O)CN(c2ccc(C)cc2)S(=O)(=O)c2c(C)n[nH]c2C)cc1	i
32	CCCCCCn1nc(C(=O)N(CC(C)C)c2c(N)n(CCCC)c(=O)[nH]c2=O)c2ccccc2c1=O	i
33	Cc1cc(C)cc(NC(=S)NCc2cccnc2)c1	i
34	Cn1c(=O)c2c(ncn2Cc2cc(-c3ccccc3)no2)n(C)c1=O	i
35	CCOC(=O)Cc1csc(NC(=S)NC(=O)c2ccc(F)cc2)n1	i
36	Cc1cc(NC(=O)CS(=O)CC(=O)Nc2c(C)cccc2C)ccc1-n1cnnn1 (stereo unspecified)	i
37	O=S1(=O)[C@H]2C[C@@H]3C=C[C@@]2(CN1Cc1ccc(F)cc1)O3	i
38	Cc1cccc(NC(=O)CSCC(=O)Nc2cc(S(=O)(=O)N3CCOCC3)ccc2OC(C)C)c1	i
39	O=C(/C=C/c1ccc(F)cc1)N1CCCc2ccccc21	i
40	Cc1n(-c2ccccc2)c2ccc(Cl)cc2[n+]1CCO	i

No new results follow: 7 of the compounds above.
no.	structure	CHT PAM
31	COC(=O)c1ccc(NC(=O)CN(c2ccc(C)cc2)S(=O)(=O)c2c(C)n[nH]c2C)cc1	i
32	CCCCCCn1nc(C(=O)N(CC(C)C)c2c(N)n(CCCC)c(=O)[nH]c2=O)c2ccccc2c1=O	i
33	Cc1cc(C)cc(NC(=S)NCc2cccnc2)c1	i
34	Cn1c(=O)c2c(ncn2Cc2cc(-c3ccccc3)no2)n(C)c1=O	i
35	CCOC(=O)Cc1csc(NC(=S)NC(=O)c2ccc(F)cc2)n1	i
36	Cc1cc(NC(=O)CS(=O)CC(=O)Nc2c(C)cccc2C)ccc1-n1cnnn1 (stereo unspecified)	i
37	O=S1(=O)[C@H]2C[C@@H]3C=C[C@@]2(CN1Cc1ccc(F)cc1)O3	i

Continuation.
no.	structure	CHT PAM
41	CC(C)c1c(C(=O)N/N=C/c2ccc(Cl)cc2Cl)nnn1-c1nonc1N	i
42	CC1(C)CC(=O)C2=C(C1)N(c1ccc(F)cc1)C(=O)CC2c1cccnc1 (stereo unspecified)	i
43	COc1ccccc1CNC(=O)c1ccc(CS(=O)(=O)c2ccc(C)cc2)o1	i
44	Cc1ccc(C(=O)Nc2ccc(N3CCN(S(C)(=O)=O)CC3)cc2)cc1C	i
45	O=C(O)CN(c1ccc(F)cc1)S(=O)(=O)c1ccc2c(c1)OCCO2	i
46	O=C(NNS(=O)(=O)c1ccccc1F)c1cccc(S(=O)(=O)N2CCOCC2)c1	i
47	Clc1ccc(CN2CCN(c3ccccc3)CC2)cn1	i
48	CC(=O)Nc1ccccc1OCC(=O)c1ccc2c(c1)OCO2	i
49	NC(=O)CC(NC(=O)c1ccccc1)c1ccc(NCC2CC2)c([N+](=O)[O-])c1 (stereo unspecified)	i
50	CC1CCCCN1C(=O)CSc1nc(-c2ccccc2)cn1N (stereo unspecified)	i
51	Cc1ccc(S(=O)(=O)Nc2c3ccccc3nc(=O)n2-c2ccccc2)cc1	i
52	COc1ccccc1NC(=S)N(c1ccccc1)C(C)C	i
53	O=C(CSc1nnc(-c2ccc(Br)cc2)o1)Nc1cccc2ccccc12	i
54	CCOC(=O)C(Cc1ccccc1)C(=O)c1ccco1 (stereo unspecified)	i
55	CCOC(=O)C1CCN(C(=O)c2cccnc2Cl)CC1	i
56	COc1ccccc1C1=NN(C(=S)Nc2ccccc2)C(c2ccco2)C1 (stereo unspecified)	i
57	CC(=O)C1C(c2ccccc2)c2c(n[nH]c2C)CC1(C)O (stereo unspecified)	i
58	Cn1cccc1/C=N/NC(=O)C(O)c1ccccc1 (stereo unspecified)	i
59	CN(Cc1ccccc1)C(=C(Cl)Cl)C(=C1NCCN1)[N+](=O)[O-]	i
60	Cn1c(SCc2c(F)cccc2Cl)nc2c(c1=O)SCC2	i
61	CNC(=O)COC(=O)c1cc2c(C)nn(-c3ccc(F)cc3)c2s1	i
62	O=C(c1ccc(C(=O)N2CCOCC2)s1)N1CCOCC1	i
63	CCCCn1c(N)c(N(CCOC)C(=O)c2cc(S(=O)(=O)N3CCCCC3)ccc2Cl)c(=O)[nH]c1=O	i
64	O=C(NCc1cccnc1)C1c2ccccc2C(=O)N1C1CCCC1 (stereo unspecified)	i
65	Cc1cc2ccccn2c1C(=O)c1nc(NCc2ccccc2)ncc1Cl	i
66	Cc1ccc(CN(C(=O)c2csnn2)C(C(=O)NC2CCCC2)c2ccc(C)o2)cc1 (stereo unspecified)	i
67	CCCCC(CCC(=O)Nc1ccccc1C(=O)OCC)C(=O)O (stereo unspecified)	i
68	O=C1C=CC[C@H](/C=C/C[C@@H](O)C[C@H](O)CCc2ccccc2)O1	i
69	CC1CN(S(=O)(=O)c2cccc(C(=O)NNC(=O)C(C)Oc3ccccc3F)c2)CC(C)O1 (stereo unspecified)	i
70	CCC(c1nnnn1C(C)(C)C)N(Cc1cccs1)Cc1cc2cc(C)c(C)cc2n2nnnc12 (stereo unspecified)	i
71	CC(OC(=O)COc1ccccc1Cc1ccccc1)C(=O)N(C)c1ccccc1 (stereo unspecified)	i
72	C[C@H]1CN=C(Nc2ccccc2)N1CCc1ccc(F)cc1	i
73	COC(=O)c1ccc(N=C2S/C(=C\c3cc(C)n(-c4cccnc4)c3C)C(=O)N2C)cc1	i
74	CCCCn1c(=O)[nH]c(=O)c2c1nc(-c1ccccc1OC(F)F)n2C	i
75	Cc1cccc(CCNS(=O)(=O)c2ccc3c(c2)oc(=O)n3C)c1	i
76	CCN(CC(=O)Nc1cc(Cl)ccc1C)C(=O)CCOc1ccccc1C	i
77	Cc1ccc(N(CC(=O)NC(C)(C)C)C(=O)CCC(=O)Nc2nccs2)cc1C	i
78	CCn1c(=O)n(CC)c2cc(S(=O)(=O)Nc3c(C)cccc3C)ccc21	i
79	Cc1c(C(N)=O)sc(N)c1C(=O)OC(C)C	i
80	S=C(NCc1ccc2c(c1)OCO2)NCc1ccco1	i
81	O=C(COC(=O)c1cccnc1)Nc1ccc(F)cc1	i
82	Cc1ccc(S(=O)(=O)N2C(=O)C(c3ccccc3)SC2=Nc2ccccc2)cc1 (stereo unspecified)	i
83	COc1ccc2oc(C(=O)OCC(=O)N3CCC(C)CC3)c(C)c2c1	i
84	CN1CCC(=NNC(=O)C(=O)Nc2cccc(Br)c2)CC1	i
85	Cc1ccc(NC2=C(Cl)C(=O)OC2OC(C)C)c(C)c1 (stereo unspecified)	i
86	COc1ccc(-c2noc(-c3ccc4c(c3)OCO4)n2)cc1	i
87	CCOc1ccc(-n2ccnc(SCC(=O)NCCc3ccccc3)c2=O)cc1	i
88	CCOC(=O)C1CCN(C(=O)c2ccc(OCC(=O)N3CCOCC3)c(OC)c2)CC1	i
89	CCCCCc1ccc(-c2nnc(N)s2)cc1	i
90	CC(C)C(O)(C#CCN1CCCCCC1)c1ccccc1 (stereo unspecified)	i

Next section
no.	structure	CHT PAM
91	O=C(c1ccc2c(c1)OCO2)C1CCCN(Cc2ccc3nsnc3c2)C1 (stereo unspecified)	i
92	COC(=O)c1cc(-c2ccccc2)sc1N	i
93	COc1ccccc1NC(=O)C(=O)NCCCN1CCCC1=O	i
94	O=[N+]([O-])c1ccc(N=Cc2ccc(Br)c([N+](=O)[O-])c2)cc1	i
95	CC1CCCC(NC2CCCCNC2=O)C1 (stereo unspecified)	i
96	COc1ccc([N+](=O)[O-])cc1C(=O)Nc1ccc(OCC(=O)N2CCOCC2)cc1	i
97	CCN(CC)S(=O)(=O)c1cccc(C(=O)OC2CCOC2=O)c1 (stereo unspecified)	i
98	CCOC(=O)C1CCN(C(=O)CSc2n[nH]c(=O)[nH]c2=O)CC1	i
99	O=C(C1CCN(Cc2ccccc2)CC1)N1CCN(C/C=C/c2ccccc2)CC1	i
100	Cc1ccc(C(=O)Nc2sc(Cc3ccc4c(c3)OCO4)c(C)c2C(N)=O)cc1	i
101	COc1ccc(C2/C=C\CN(C(=O)Nc3ccccc3-c3ccccc3)CC(=O)N2Cc2ccc(F)cc2)cc1 (stereo unspecified)	i
102	Cc1ccc(C(=O)Nc2ccccc2-c2ccccc2)o1	i
103	O=C(N/N=C/c1ccccn1)c1cc(C2CC2)[nH]n1	i
104	Cc1ccc(-c2nc(C#N)c(N3CCC(C(N)=O)CC3)o2)cc1	i
105	CCOc1ccc(-n2c(C)c(C(C)=O)c3cc(OCC(N)=O)ccc32)cc1	i
106	Cc1ccc(NC(=O)c2nnn(-c3cccc(C(F)(F)F)c3)c2N)cc1	i
107	CC1CC(C)CN(C2CCN(Cc3cccnc3)CC2)C1 (stereo unspecified)	i
108	Cc1nc(C)c(-c2csc(Nc3ccc(O)cc3C)n2)s1	i
109	Cc1cccc(C(=O)Nc2ccc(C(=O)N/N=C/c3cccnc3)cc2)c1	i
110	Cc1ccc(Oc2cc(NC(=O)CCCn3nc(C)c([N+](=O)[O-])c3C)cc([N+](=O)[O-])c2)cc1	i
111	Nc1nc(-c2ccc3c(c2)CCCC3)cs1	i
112	CCOc1ncccc1C(=O)N1CCN(c2ccc(C(F)(F)F)cn2)CC1	i
113	CN(C)c1ccc(C(CNS(=O)(=O)c2cccc([N+](=O)[O-])c2)N2CCOCC2)cc1 (stereo unspecified)	i
114	Cc1nn(CCC(N)=O)c2nc(-c3cccs3)cc(C(F)(F)F)c12	i
115	COc1cc(C(=O)NNC(=O)CNC(=O)c2ccc(Br)o2)cc(OC)c1OC	i
116	O=C(CCc1ccccc1)N/N=C/c1cccc([N+](=O)[O-])c1	i
117	CCOc1ccccc1NC(=O)CNC(=O)c1nn(-c2ccc(OC)c(OC)c2)c(=O)c2ccccc12	i
118	COc1ccc(C2=NOC(Cn3nc(C(=O)O)cc3-c3ccccc3)C2)cc1 (stereo unspecified)	i
119	COCCN(C(=O)COC(=O)/C=C/c1ccco1)c1c(N)n(Cc2ccccc2)c(=O)[nH]c1=O	i
120	CCN(C(=O)c1ccc(S(=O)(=O)N2CCCC2)cc1)C1CCS(=O)(=O)C1 (stereo unspecified)	i
121	CS/C(=N\S(=O)(=O)c1cccs1)Nc1ccc(Cl)cc1	i
122	S=C1NCN(CCc2ccccc2)CN1Cc1ccccc1	i
123	CC(C)(C)SCCNC(=O)COc1ccccc1	i
124	COc1cc([N+](=O)[O-])ccc1NC(=O)C[n+]1ccccc1C	i
125	CC1CCN(C(=O)Cn2nnc(-c3ccccc3)n2)CC1	i
126	NCCCC[C@H]1CNC(=O)C(=O)N1CCc1cccc(F)c1	i
127	O=C(NNC(=S)Nc1ccccc1)c1ccncc1	i
128	CCCNC(=O)c1ccc(CNc2c(N3CCC(C(=O)OCC)CC3)c(=O)c2=O)cc1	i
129	CN(C)C1=NCCN1CCc1ccc(F)cc1	i
130	CCCN(CC(=O)Nc1ccccc1OC)C(=O)c1cnc(Cl)c(Cl)c1	i
131	Cc1ccc(-n2nnnc2CN2CCCCC2)cc1	i

Assay outcomes (PubChem BioAssay)
